Vaccinia Venus: qHTS for Stage-Specific Inhibitors of Vaccinia Orthopoxvirus: Venus Reporter Primary qHTS; actives 0.46% (n = 330,000); Potency, µM (series often up to 36.5 µM), for inactives: at the top dose activity change, negative = inhibition, actives largely listed as inhibitors; Vaccinia virus Venus reporter expression, fluorescence; active means well fitted inhibition curve with a large enough effect; inconclusive means small, poorly fitted or top-dose-only effect; inactive means no such curve, though single readings can be large or run the other way; tested in A549 cells; note: nearly all actives have a fitted effect of over 30% in size; inactives centre near -10
Vaccinia mCherry: qHTS for Stage-Specific Inhibitors of Vaccinia Orthopoxvirus: mCherry Reporter Primary qHTS. Vaccinia virus mCherry reporter infection, fluorescence; about a quarter of the inactives have no number. Potency, µM (top dose mostly 36.5 µM), for the others: top-dose activity change, negative = inhibition, usual class: inhibitors. actives 0.63% (n = 310,000); active = well fitted inhibition curve with a large enough effect; inconclusive = small, poorly fitted or top-dose-only effect; inactive = no such curve, though single readings can be large or run the other way; tested in A549 cells; note: nearly all actives have a fitted effect of over 35% in size; inactives centre near -10
Numbers without * were called inactive; i = inactive; ? = inconclusive; · = no result given. % is set by controls: 0 for no effect and ±100 for the full control effect; potency is the fitted concentration of half-maximal effect.

SMILES	Vaccinia Venus	Vaccinia mCherry
O=C(COC(=O)c1c2ccccc2cc2ccccc12)NCC(F)(F)F	?	-23%
CN(Cc1nc(-c2ccc3c(c2)OCO3)no1)CC1(N2CCOCC2)CCCCC1	3%	-16%
COc1ccc(/C=N/NC(=O)c2nnn(-c3nonc3N)c2C)cc1OC	-13%	i
Cc1ccc(C(=O)NNC(=O)c2cccs2)cc1	-9%	i
CC(C)NC(=O)NC(=O)CN1C(=O)NC2(CCc3ccccc3C2)C1=O (stereo not drawn)	-12%	i
COC(=O)c1ccc(Cn2cnc3c(sc4nc(N5CCOCC5)c5c(c43)CCCC5)c2=O)o1	-4%	?
CC(C)CNC(=O)COC(=O)C1c2ccccc2Oc2ccccc21	-19%	-5%
COc1ccc(C)cc1NC(c1nnc(-c2ccccc2)o1)c1ccc(F)cc1Cl (stereo not drawn)	-5%	-5%
CCc1cccc(NC(=O)c2ccc(CNc3c(N4CCCC4)c(=O)c3=O)cc2)c1	-6%	1%
Cc1ccc(C)c(NC(=S)NNC(=O)c2csc(C)c2C)c1	-16%	-24%
C=CCn1c(=O)c(C(=O)Nc2cc(C)ccn2)c(O)c2ccccc21	-6%	i
O=C(c1ccc2[nH]c(=O)c(=O)[nH]c2c1)N1CCN(c2ccccc2)CC1	-15%	-17%
Cc1ccc(-n2nc3c(n2)/C(=N/O)CC/C3=N\O)cc1	-22%	?
CCn1c2ccccc2c2cc(C3N=C(N)Nc4nc5ccccc5n43)ccc21 (stereo not drawn)	-7%	-15%
Cc1cc2c(cc1C)-n1nnnc1C(N(Cc1ccccc1)Cc1ccccc1)C(=O)N2 (stereo not drawn)	-18%	?
COc1cccc(C(c2nnnn2Cc2ccc(F)cc2)N2CCC(C(N)=O)CC2)c1OC (stereo not drawn)	?	·
COc1ccc(-c2csc3nc[nH]c(=O)c23)cc1OC	-13%	i
COc1cc(/C=C2/SC(=S)N(CC(=O)NNC(=O)c3ccc(F)cc3)C2=O)cc(OC)c1OC	-8%	-19%
CCOC(=O)c1cc(CC)sc1/N=C/C1C(=O)NC(=S)NC1=O	5%	0%
COc1ccccc1CNc1ncnc2ccc(-c3c(C)noc3C)cc12	-9%	-1%
COCCNC(=S)N1CCc2cc(OC)c(OC)cc2C1c1cccs1 (stereo not drawn)	-14%	-14%
COc1ccc(-c2cc(C(F)(F)F)n3nc(C(=O)Nc4sc5c(c4C#N)CCC(C)C5)cc3n2)cc1OC (stereo not drawn)	-9%	-16%
O=C(Cc1cccc(NC(=O)C2CCCN(C(=O)C3CCCCC3)C2)c1)Nc1ccc(C(=O)N2CCCCC2)cc1 (stereo not drawn)	-3%	-13%
COc1ccc(N2CCN(C(=O)c3ccc(CNS(=O)(=O)c4cc(C)ccc4C)cc3)CC2)cc1	-23%	-10%

15 entries already listed, arranged by count of non-hydrogen atoms, smallest number first.
SMILES	Vaccinia Venus	Vaccinia mCherry
Cc1ccc(C(=O)NNC(=O)c2cccs2)cc1	-9%	i
COc1ccc(-c2csc3nc[nH]c(=O)c23)cc1OC	-13%	i
Cc1ccc(C)c(NC(=S)NNC(=O)c2csc(C)c2C)c1	-16%	-24%
CCOC(=O)c1cc(CC)sc1/N=C/C1C(=O)NC(=S)NC1=O	5%	0%
C=CCn1c(=O)c(C(=O)Nc2cc(C)ccn2)c(O)c2ccccc21	-6%	i
O=C(c1ccc2[nH]c(=O)c(=O)[nH]c2c1)N1CCN(c2ccccc2)CC1	-15%	-17%
COc1ccccc1CNc1ncnc2ccc(-c3c(C)noc3C)cc12	-9%	-1%
CCn1c2ccccc2c2cc(C3N=C(N)Nc4nc5ccccc5n43)ccc21 (stereo not drawn)	-7%	-15%
CCc1cccc(NC(=O)c2ccc(CNc3c(N4CCCC4)c(=O)c3=O)cc2)c1	-6%	1%
Cc1cc2c(cc1C)-n1nnnc1C(N(Cc1ccccc1)Cc1ccccc1)C(=O)N2 (stereo not drawn)	-18%	?
COc1cccc(C(c2nnnn2Cc2ccc(F)cc2)N2CCC(C(N)=O)CC2)c1OC (stereo not drawn)	?	·
COC(=O)c1ccc(Cn2cnc3c(sc4nc(N5CCOCC5)c5c(c43)CCCC5)c2=O)o1	-4%	?
COc1ccc(N2CCN(C(=O)c3ccc(CNS(=O)(=O)c4cc(C)ccc4C)cc3)CC2)cc1	-23%	-10%
COc1ccc(-c2cc(C(F)(F)F)n3nc(C(=O)Nc4sc5c(c4C#N)CCC(C)C5)cc3n2)cc1OC (stereo not drawn)	-9%	-16%
O=C(Cc1cccc(NC(=O)C2CCCN(C(=O)C3CCCCC3)C2)c1)Nc1ccc(C(=O)N2CCCCC2)cc1 (stereo not drawn)	-3%	-13%

Remaining list, next part.
SMILES	Vaccinia Venus	Vaccinia mCherry
Cc1nn(C)cc1NC(=O)c1nn(C)cc1[N+](=O)[O-]	-11%	-15%
COc1ccc(F)c(CN2CCN(CCc3ccccc3)C(CCO)C2)c1 (stereo not drawn)	-4%	-11%
CC(C)C(=O)N1CCN(c2ccccc2NC(=S)NC(=O)c2ccco2)CC1	-15%	-21%
CC1(C)OC(=O)N(CCC(=O)Nc2cccc(F)c2)C1(C)O (stereo not drawn)	-11%	i
Cc1ccc(OCCOc2ccc(Cl)cc2Cl)c([N+](=O)[O-])n1	-12%	i
COc1ccc(CCN2C(=O)C(Oc3ccccc3C)C2c2ccc3c(c2)OCO3)cc1 (stereo not drawn)	-11%	-13%
Cn1c(=O)c(=O)n(C)c2cc(S(=O)(=O)N3CCC(Cc4ccccc4)CC3)ccc21	-3%	i
COc1ccc2nc3oc(C(=O)NCc4cccs4)cc3cc2c1	-1%	-17%
Cc1cc(C)c(C(=O)c2ccccc2C(=O)O)c(C)c1	-9%	-11%
O=C1NC(=O)C(=Cc2ccc(-c3cc(Cl)ccc3[N+](=O)[O-])o2)C(=O)N1	4%	?
CC1CCCN(c2nc3c(S(=O)(=O)c4ccc(C(C)C)cc4)nnn3c3ccsc23)C1 (stereo not drawn)	-22%	-14%
CC1=C(C(=O)Nc2cccnc2)C(c2ccc(F)cc2)n2nc(SCc3ccccc3)nc2N1 (stereo not drawn)	4%	-13%
Fc1cccc(NC(=S)N2CCN(c3ccccn3)CC2)c1	-17%	-7%
COc1ccccc1NS(=O)(=O)c1cc(NC(=O)CN2C(=O)NC3(CCCC3)C2=O)ccc1C	-8%	-1%
O=C(c1ccco1)n1nc(-c2ccccc2)nc1NCc1ccc(Cl)cc1	4%	-8%
COc1ccc(SCCc2ccncc2)cc1	-26%	-11%
CCCOc1ccc2cc(-c3ccccn3)c(=O)oc2c1	-18%	i
Cc1ccc(NC(=O)NCC2CC2(Cl)Cl)cc1 (stereo not drawn)	3%	-13%
CCOc1ccc(C(=O)NC2CCN(C(=O)N3CCCC3)CC2)cc1	-7%	·
COC1=CC(=O)C(O)=C/C1=C\C=C\c1ccccc1	2%	-5%
NS(=O)(=O)c1ccc2nc(NC(=O)c3ccc4ncsc4c3)sc2c1	-10%	-15%
Cc1c(Cl)cccc1-c1ccc(/C=C(\C#N)c2nc3ccccc3[nH]2)o1	-22%	-13%
CC(C)OC(=O)C(CC(=O)O)N1CCOCC1 (stereo not drawn)	-6%	·
CC(C)CCn1c(=O)c(C(=O)NCc2ccc3c(c2)OCO3)c(O)c2ccccc21	-4%	-14%

Nothing new here: two of the compounds above.
SMILES	Vaccinia Venus	Vaccinia mCherry
COc1ccc(N2CCN(C(=O)c3ccc(CNS(=O)(=O)c4cc(C)ccc4C)cc3)CC2)cc1	-23%	-10%
Cc1nn(C)cc1NC(=O)c1nn(C)cc1[N+](=O)[O-]	-11%	-15%

(list continues)
SMILES	Vaccinia Venus	Vaccinia mCherry
Cc1ccc(C(=O)NCCn2cc(SCC(=O)Nc3nnc(C)s3)c3ccccc32)cc1	-4%	-9%
CC1CCCN(c2cc3c(cc2[N+](=O)[O-])C(=O)N(c2ccccc2)C3=O)C1 (stereo not drawn)	-12%	-9%
O=C(NC(c1ccc(Cl)cc1)c1ccccn1)C1CCN(CCOc2ccc(Cl)cc2Cl)CC1 (stereo not drawn)	-14%	5%
COc1cc(OC)cc(-c2nnc(SCC(=O)N3c4ccccc4Sc4ccccc43)o2)c1	-26%	·
COc1ccccc1/C=C/C=N/NC(=O)Cc1cccs1	-15%	-20%
O=C(c1ccncc1)N1CCN(S(=O)(=O)c2cccc(F)c2)CC1	-18%	i
CSCCC(C(=O)Nc1c(C)cccc1C)n1c(-c2cc(C)cs2)nc2ccccc21 (stereo not drawn)	-17%	-17%
Cc1ccc(Nc2nc(N)nc(CSc3ncccn3)n2)cc1	-19%	-22%
Cc1ccc(O/C=C2/Nn3c(nnc3-c3cc(-c4ccccc4)n[nH]3)S2)cc1	-28%	-11%
CCCC1=C(C(=O)OCC)C(c2c(C)nn(-c3ccccc3)c2Cl)C(C#N)=C(N)O1 (stereo not drawn)	0%	·
CCn1cc(CN2CCC(n3nccc3NC(=O)CCCc3ccccc3)CC2)c(C)n1	4%	-21%
CCn1c(=O)c2sccc2n(CC(=O)NC2CCCCC2)c1=O	-7%	28%
COc1ccccc1CNC(=O)CN(C)S(=O)(=O)c1ccc2c(c1)c(=O)n(C)c(=O)n2C	-12%	i
COc1ccccc1CN(C)CC(=O)Nc1cccc2ccccc12	-10%	?
COc1ccc(-c2cc(C(=O)Oc3ccc(C#N)cc3)no2)cc1	-2%	-5%
COc1ccc(OC)c(NC(=O)c2cnc(Nc3ccc(C)c(Cl)c3)c3ccccc23)c1	21%	11%
CCOC(=O)N1CCN(S(=O)(=O)c2ccc3[nH]c(=O)oc3c2)CC1	-12%	-3%
CCCCn1c(SCC(=O)N2c3ccccc3Sc3ccccc32)nc2c1c(=O)n(C)c(=O)n2C	?	·
O=C(COC(=O)c1ccc(S(=O)(=O)NCc2ccco2)cc1)Nc1ccc(Cl)cn1	1%	?
CSCCC(NS(=O)(=O)c1ccc2c(c1)oc(=O)n2C)C(=O)NCc1ccc(Cl)cc1 (stereo not drawn)	-5%	-10%
O=C(CC(C(=O)O)P(=O)(c1ccccc1)c1ccccc1)c1ccc(Br)cc1 (stereo not drawn)	-13%	i
COc1ccc(-c2[nH]c(-c3cccc(OC)c3)nc2SCC(=O)NCc2ccco2)cc1	-25%	?
COc1cccc(CNC(=O)c2c(OC)cc(=O)n3c2CCN(C(=O)C2CC=CCC2)CC3)c1 (stereo not drawn)	-10%	-16%
O=C(NCc1ccccc1)[C@@H]1CCCN1C(=O)[C@@H]1CCCN1C(=O)c1cccs1	2%	-9%
CCOC(=O)C(Cc1cc(N)c(Oc2ccc(OC)cc2)c(N)c1)NC(C)=O (stereo not drawn)	-5%	-9%
O=C(Nc1ccc(F)c(Cl)c1)C1CCCN(c2cnccn2)C1 (stereo not drawn)	-8%	-4%
Cc1ccc(C(=O)N/C(=C/c2ccco2)C(=O)NCC2CCCO2)cc1 (stereo not drawn)	3%	-3%
C=CCn1c(C)cc(C(=O)CSc2nnc(-c3cccc(S(=O)(=O)N(CC)CC)c3)o2)c1C	-23%	?
O=S(=O)([N-]c1nc2ccccc2nc1-n1cc[n+](Cc2ccccc2)c1)c1ccc(Cl)cc1	-6%	i
O=C1C2C(C(=O)N1CCc1ccccc1)C1C=CC2C12CC2 (stereo not drawn)	?	?
CC1CCN(S(=O)(=O)c2ccc3c(c2)c(=O)c(C(=O)N2CCN(c4cccc(Cl)c4)CC2)cn3C)CC1	-21%	?
COc1cc([C@@H]2CC=C(C(=O)O)[C@H](c3ccc(Cl)cc3)N2S(=O)(=O)c2ccc(C)cc2)cc(OC)c1OC	-13%	-8%
C[C@@H](C(=O)Nc1ccc2ccccc2c1)[C@H]1C[C@]1(C)[C@H](NS(=O)(=O)c1ccccc1)c1ccccc1	-25%	i
C(=N\Nc1nc(-c2ccccc2)cs1)/c1ccncc1	2%	-53%
Cc1[nH]c(=O)[nH]c(=O)c1S(=O)(=O)N1CCCC(C(=O)NCCc2ccccc2)C1 (stereo not drawn)	-15%	·
CCCCn1c(NCc2cc(C)ccc2O)nc2ccccc21	?	-28%
CC(=O)c1ccc(OCCCC(=O)OCC(=O)N2CCN(c3ccccc3)CC2)cc1	4%	·
O=C(NCc1ccccn1)c1cc(-c2ccc(Cl)cc2)nc2ccccc12	-20%	-2%
O=C(Nc1ccccc1O)C(c1ccccc1)c1ccccc1	-6%	-7%
O=c1cc(N2CCc3ccccc3C2)[nH]c(=O)n1Cc1ccc(F)cc1	-2%	-11%
CCCCc1ccc(-n2nc3ccc(NC(=O)c4cc5ccccc5o4)cc3n2)cc1	-7%	-22%
CC(CNC(=O)Cn1ccc2cc(S(=O)(=O)N3CCCC3)ccc21)c1ccccc1 (stereo not drawn)	-21%	?
COc1cc(C2CC(=O)c3c(ccc4ccccc34)N2)ccc1O (stereo not drawn)	-7%	-23%
COc1ccc(/C=C2/C(=N)N3N=C(CC(=O)N4CCCC4)SC3=NC2=O)cc1OC	-5%	-17%
Cc1nc(Cl)cc(N/N=C/c2ccc(O)cc2O)n1	-25%	?
Cc1ccccc1N1C(=O)C2C3CCC(O3)C2C1=O (stereo not drawn)	-2%	-15%
CCC(=O)N1CCc2cc(S(=O)(=O)NC(CC(C)C)C(=O)NCc3cccc(OC)c3)ccc21 (stereo not drawn)	-8%	-5%
CSc1nc2c(c(=O)n1Cc1ccccc1)SC(C)C2 (stereo not drawn)	-23%	-17%
O=S(=O)(c1ccc(Cl)cc1)N1CCCC(c2nc(-c3ccc(F)cc3)no2)C1 (stereo not drawn)	-20%	i

No enrichment for hits (roughly 0.86% active in at least one column).
